2A StopGo: lowers the luciferase signal of an FMDV 2A StopGo reporter | human cells with a luciferase reporter of 2A StopGo recoding; control for the full effect not named in the record | Potency, µM (doses to about 57.9 µM), without a hit: at the highest dose signal change, negative = less light | 1.2% of 410,000 active | AID 1159524; active = well fitted falling curve with a large enough effect; inconclusive = small, poorly fitted or top-dose-only effect; inactive = no such curve, though single readings can be large or run the other way; tested in HEK293T cells; also: % is scaled to controls: 0 for no effect and ±100 for the full control effect; nearly all actives have a fitted effect of over 45% in size; luciferase light after 4 h
RE007 growth inh: less growth of the S. pombe RE007 Vpr strain; S. pombe RE007 Vpr strain, BacTiter-Glo ATP luminescence, 24 h; control for the full effect not named in the record; 0.21% of 360,000 active; AID 651644; Potency, µM (titrated, usually from 92.2 µM), inactives show at the top dose activity change, negative = less growth; active = well fitted falling curve with a large enough effect; inconclusive = small, poorly fitted or top-dose-only effect; inactive = no such curve, though single readings can be large or run the other way;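 also: % is scaled to controls: 0 for no effect and ±100 for the full control effect; nearly all actives have a fitted effect of over 50% in size; the assay follows cell death caused by Vpr and the record does not say whether a fall means rescue or toxicity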
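Fission yeast RE007 carrying one integrated HIV-1 vpr copy, seeded at OD 0.01 in PMG+AL medium with 23 nL pinned compound. Grown 24 h at 30 degrees; viability read by BacTiter-Glo luminescence after 5 min.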
SARS PLpro yeast: blocks SARS-CoV papain-like protease in a yeast assay. S. cerevisiae expressing SARS-CoV PLpro, growth rescue; control for the full effect not named in the record. Potency, µM (doses to about 32.9 µM), for the others: top-dose activity, positive = growth rescue. 0.19% of 330,000 active; active means well fitted rising curve with a large enough effect; inconclusive means small, poorly fitted or top-dose-only effect; inactive means no such curve, though single readings can be large or run the other way; also: 0% is about no effect; nearly all actives have a fitted effect of over 55% in size; growth read by luminescence after 48 h
The depositor's hits bear a star; ? = inconclusive; [ ] = dose if it differs, or a comment. Potency is read from the fitted curve at half-maximal effect. Some of the compounds tested, so the mix of outcomes need not match the whole.

The first six records as a preview:
SMILES	2A StopGo	RE007 growth inh	SARS PLpro yeast
CC(=O)Nc1ccc(Oc2ccc(S(=O)(=O)N3CCCC3)cn2)cc1	4%	4%	2%
CC(Sc1nnc(-c2ccncc2)n1C)C(=O)Nc1ccc(N2CCOCC2)cc1 (stereo not drawn)	-10%	11%	6%
Clc1ccc(-c2cc(-c3ccccc3)on2)cc1	51%[activator]	-15%	1%
O=C(CN1CCCCC1CO)c1ccc(OC(F)F)cc1 (stereo not drawn)	-5%	9%	-6%
CCN(c1ccccc1)S(=O)(=O)c1ccc(N2CCN(c3ccccc3O)CC2)nc1	?	8%	4%
C/C(=N\NC=O)c1ccncc1	-26%	-1%	-3%

The listing, from the first entry:
SMILES	2A StopGo	RE007 growth inh	SARS PLpro yeast
CC(=O)Nc1ccc(Oc2ccc(S(=O)(=O)N3CCCC3)cn2)cc1	4%	4%	2%
CC(Sc1nnc(-c2ccncc2)n1C)C(=O)Nc1ccc(N2CCOCC2)cc1 (stereo not drawn)	-10%	11%	6%
Clc1ccc(-c2cc(-c3ccccc3)on2)cc1	51%[activator]	-15%	1%
O=C(CN1CCCCC1CO)c1ccc(OC(F)F)cc1 (stereo not drawn)	-5%	9%	-6%
CCN(c1ccccc1)S(=O)(=O)c1ccc(N2CCN(c3ccccc3O)CC2)nc1	?	8%	4%
C/C(=N\NC=O)c1ccncc1	-26%	-1%	-3%
CC[C@]12c3[nH]c4cc(-c5ccco5)ccc4c3CCN1C(=O)[C@@H](CC(=O)NCc1ccc(OC)c(OC)c1)C[C@@H]2C(=O)N1CCN(C(=O)c2ccco2)CC1	-6%	-16%	7%
CSCCC(NC(=O)c1ccc(Cl)cc1Cl)C(=O)NNC(=O)c1ccncc1 (stereo not drawn)	-9%	5%	-5%
COc1ccc(Nc2c(-c3ccc(OC)cc3)nc3cnccn23)cc1	-19%	-5%	1%
N#C/C(=C\c1ccco1)C(=O)NCc1ccccc1	16%	0%	-1%
Cc1nc(-c2ccccc2)sc1-c1ccn[nH]1	21%	?	-4%
CCOc1ccc(/C=N/NC(=O)CN2CCCCCCC2)cc1	9%	-1%	-5%
O=[N+]([O-])c1cccc(-c2c(-c3ccccc3)ncc3ccc(F)cc23)c1	26%	-2%	-4%
CCC(C)NC(=O)C(=O)NCC1CCCN1CC (stereo not drawn)	-11%	-2%	2%
Nc1ncnc2c1ncn2[C@@H]1O[C@H](CNCc2c(OCc3ccccc3F)ccc3ccccc23)[C@@H](O)[C@H]1O	-29%	-18%	-1%
COC(=O)C(C)Sc1ccc2nnc(-c3ccccc3)n2n1 (stereo not drawn)	-3%	-6%	2%
COc1ccc(C(=O)NNC(=O)c2ccc(S(=O)(=O)N3CC(C)OC(C)C3)cc2)cc1 (stereo not drawn)	-9%	-6%	1%
COc1ccc2c(c1)OC[C@H]1[C@H]2N2C(=O)c3cc(OC)ccc3NC(=O)[C@@]2(C)[C@H]1c1ccccc1	-29%	14%	3%
COc1ccc(NC(=O)COC(=O)c2cc(C)oc2C)c([N+](=O)[O-])c1	-17%	8%	9%
CC(C)(C)OC(=O)N[C@H](C(=O)OC(C)(C)C)c1ccccc1	-22%	-28%	5%
CC(=O)Nc1ccc(S(=O)(=O)N(C)CC(=O)OCC(=O)Nc2cc(C)on2)cc1	-14%	18%	3%
Nc1nc(N)nc(-c2cccc(Cl)c2)n1	38%[activator]	-20%	1%
NC(=O)c1ccc(NC(=O)COC(=O)CCC(=O)c2ccc(Cl)cc2)cc1	15%	1%	2%
Cc1ccc(S(=O)(=O)N2CCN(C(=O)COC(=O)/C=C/c3ccc([N+](=O)[O-])cc3)CC2)c(C)c1	-25%	6%	3%
CCc1cccc(NC(=O)[C@@H]2CCCN2C2=NS(=O)(=O)c3ccccc32)c1	17%	5%	-1%
COc1ccc(CC(=O)NNC(=O)c2ccccc2)cc1OC	9%	2%	-2%
COc1ccc(NC(=O)Nc2cccs2)cc1Cl	50%[activator]	15%	1%
C[C@H]1CN([C@@H](C)CO)C(=O)Cc2cc(NS(C)(=O)=O)ccc2O[C@@H]1CN(C)Cc1ccc(Cl)c(Cl)c1	0%	9%	6%
O=C(COC(=O)CCC(=O)c1cccs1)Nc1cccc(F)c1	-8%	?	2%
Cc1ccc(CNC(=O)c2cc(-c3ccccc3)nn2Cc2cc(C)no2)cc1	-10%	22%	2%

Another view of part of the listing above:
NC(=O)c1ccc(NC(=O)COC(=O)CCC(=O)c2ccc(Cl)cc2)cc1
  2A StopGo: 15%	RE007 growth inh: 1%	SARS PLpro yeast: 2%
CC(=O)Nc1ccc(S(=O)(=O)N(C)CC(=O)OCC(=O)Nc2cc(C)on2)cc1
  2A StopGo: -14%	RE007 growth inh: 18%	SARS PLpro yeast: 3%

Going on with the list.
SMILES	2A StopGo	RE007 growth inh	SARS PLpro yeast
O=C1N(c2ccccc2)C(c2ccccc2)C12CCCCC2 (stereo not drawn)	-29%	-14%	-43%
CCN1C[C@@H]2[C@@H]3C(=O)N(Cc4ccccc4)C(=O)[C@@H]3[C@](CC)(C(=O)OC)N2C1=NC	-4%	-4%	4%
Cc1ccc(NC(=O)CCNC(=O)c2ccccc2Cl)cc1S(=O)(=O)N1CCOCC1	-17%	0%	5%
Cc1cccc(-c2noc(CCC(=O)N3CCN(c4cc(C)ccc4C)CC3)n2)c1	38%[activator]	-4%	-1%
COCCNC(=O)CN1CCN(S(=O)(=O)c2ccc3c(c2)CCCC3)CC1	-6%	4%	5%[6.58 µM]
O=C(O)C1=CC[C@@H](c2ccc(Cl)cc2)N(S(=O)(=O)c2ccc(Cl)cc2)C1	-2%	-4%	-2%
Clc1nc(CN2CCCCC2)nc2sc3c(c12)CCCC3	-8%	-11%	2%
O=C(NNC(=O)c1ccccc1Cl)c1ccc(-n2cncn2)c([N+](=O)[O-])c1	-12%	-8%	-3%
COC(=O)c1cccnc1-n1c(=O)c2cccnc2n(Cc2ccc([N+](=O)[O-])cc2)c1=O	-21%	11%	-2%
COC(=O)[C@]1(C)N[C@H](c2ccc(SC3CCCCC3)cc2)[C@@H]2C(=O)N(C)C(=O)[C@@H]21	-4%	0%	3%
O=C(Cc1ccc(Cl)cc1)c1c[nH]c(C(=O)NCc2cccnc2)c1	7.9µM*	7%	1%
CC(=O)N1CCN(C(=O)c2c(-c3ccccc3)noc2C)CC1	-5%	-8%	-3%
CCN1C(=O)CC(c2ccccc2)CC1=O	-3%	4%	-5%
COc1cc2oc(=O)ccc2cc1[C@@H](O)[C@@H]1OC(C)(C)OC1(C)C	-21%	9%	0%
O=C(CCCc1nc2ccccc2s1)NCc1cccnc1	11%	-2%	-1%
CC(=O)c1ccc(S(=O)(=O)Nc2ccc(C(=O)N(C)CC(=O)Nc3cccc(C)c3C)cc2)cc1	-8%	-9%	-15%
COc1ccccc1CNC(=O)CN(C)CC(=O)Nc1ccc(F)c(F)c1F	-17%	7%	-3%
O=C(CSc1ccsc1[N+](=O)[O-])NC1CCCC1	-1%	10%	3%
C=CCN(Cc1cccs1)C(=O)CN1CCN(S(=O)(=O)c2ccc3c(c2)OCCCO3)CC1	-20%	-7%	-5%
COc1ccc(NC(=O)N(C)C[C@H]2Oc3ccc(NC(=O)NC(C)C)cc3C(=O)N([C@H](C)CO)C[C@@H]2C)cc1	-11%	9%	-2%
CCN1C(N(C)CCc2c[nH]c3ccccc23)=N[C@@H](c2cccc(C(F)(F)F)c2)C(C(=O)OC)=C1C	-29%	-26%	5%
CCOC(=O)N1CCN(CCC(=O)c2ccc(OC)cc2)CC1	27%	28µM*	-14%
O=C(c1cc(S(=O)(=O)Nc2ccccc2F)c(Cl)cc1Cl)N1CCN(CCO)CC1	-7%	-12%	-1%
Nc1nnc(SCC(=O)OCC(=O)NC2CCCCC2)s1	3%	16%	1%
CN(CC(=O)Nc1ccc(Cl)cc1)C(=O)CNC(=O)c1cccs1	-5%	-15%	2%
COc1ccc(CCNC(=O)CSc2nc3[nH]ncc3c(=O)n2-c2ccc(C)c(Cl)c2)cc1OC	41%[activator]	-2%	1%
O=C1c2ccccc2[C@@H]2CC(O)C(O)CCN12 (stereo partly drawn)	-9%	-2%	-5%
COc1ccc(NC(=O)Nc2ccc3c(c2)C(=O)N([C@H](C)CO)C[C@H](C)[C@@H](CN(C)C(=O)Nc2ccc(OC)cc2)O3)cc1	-8%	-2%	5%
C/C(=N\OCC(=O)Nc1ccccc1C(=O)O)c1cccs1	53%[activator]	3%	5%
Cc1ccc(C(=O)N2CC(C)OC(C)C2)cc1S(=O)(=O)N1CCCCC1 (stereo not drawn)	-13%	-11%	-5%

Whole records, quoted from the list:
Entry for CCN1C(N(C)CCc2c[nH]c3ccccc23)=N[C@@H](c2cccc(C(F)(F)F)c2)C(C(=O)OC)=C1C : 2A StopGo: -29%; RE007 growth inh: -26%; SARS PLpro yeast: 5%
Entry for CC(=O)c1ccc(S(=O)(=O)Nc2ccc(C(=O)N(C)CC(=O)Nc3cccc(C)c3C)cc2)cc1 : 2A StopGo: -8%; RE007 growth inh: -9%; SARS PLpro yeast: -15%

Following part.
SMILES	2A StopGo	RE007 growth inh	SARS PLpro yeast
CC(C)OC(=O)c1ccc(NC(=O)c2cccc(-n3cnnn3)c2)cc1	?	11%	9%
Cc1ccc(NC(=O)CN2CCC(C(N)=O)CC2)cc1[N+](=O)[O-]	27%	10%	2%
Cc1cc(NC(=O)c2ccc(-c3ccccc3[N+](=O)[O-])o2)no1	55%[activator]	-3%	0%
Cc1ccc(Cl)cc1NC(=O)COC(=O)c1ccc(CN2CCCC2=O)cc1	4%	2%	-7%
O=C(NCCc1csc(-c2ccccc2)n1)c1c(F)cccc1F	-8%	5%	-5%
NS(=O)(=O)c1cccc(NC(=O)COC(=O)CCCc2c[nH]c3ccccc23)c1	-16%	-6%	0%
Fc1ccc(C(Nc2ccccn2)c2c[nH]c3ccccc23)cc1 (stereo not drawn)	-24%	-24%	-3%
CN(Cc1nc2ccccc2c(=O)[nH]1)C(=O)COc1ccccc1Cc1ccccc1	-12%	2%	5%
Cc1cccc(C(=O)NCCC(=O)NCc2ccccc2Cl)c1	11%	-3%	3%
Fc1ccc(C[n+]2c(-c3ccccc3)cc(-c3ccccc3)cc2-c2ccccc2)cc1	0%	-15%	2%
CN(C)S(=O)(=O)c1ccc(Cl)c(C(=O)NNC(=O)c2ccc3c(c2)OCO3)c1	4%	1%	1%[6.58 µM]
Cc1noc(C)c1S(=O)(=O)N(C)C[C@H]1Oc2c(NC(=O)Nc3ccccc3)cccc2C(=O)N([C@H](C)CO)C[C@@H]1C	-5%	3%	0%

Part of the list above, showing only SARS PLpro yeast and RE007 growth inh.
mol	SARS PLpro yeast	RE007 growth inh
Fc1ccc(C(Nc2ccccn2)c2c[nH]c3ccccc23)cc1 (stereo not drawn)	-3%	-24%
CN(Cc1nc2ccccc2c(=O)[nH]1)C(=O)COc1ccccc1Cc1ccccc1	5%	2%
Cc1cccc(C(=O)NCCC(=O)NCc2ccccc2Cl)c1	3%	-3%
Fc1ccc(C[n+]2c(-c3ccccc3)cc(-c3ccccc3)cc2-c2ccccc2)cc1	2%	-15%
CN(C)S(=O)(=O)c1ccc(Cl)c(C(=O)NNC(=O)c2ccc3c(c2)OCO3)c1	1%[6.58 µM]	1%
Cc1noc(C)c1S(=O)(=O)N(C)C[C@H]1Oc2c(NC(=O)Nc3ccccc3)cccc2C(=O)N([C@H](C)CO)C[C@@H]1C	0%	3%
